Sfp PPTase inh – inhibitors of Bacillus subtilis Sfp phosphopantetheinyl transferase. Q9F4F7. Biochemical Sfp PPTase activity, qHTS. Potency, µM, inactives show max response, negative = inhibition, hits mostly inhibitors. 310,000 compounds, 3.5% hits. AID 1490; active = well fitted inhibition curve with a large enough effect; inconclusive = small, poorly fitted or top-dose-only effect, or another doubt; inactive = no such curve, though single readings can be large or run the other way;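 also: the enzyme is Sfp with the accession as filed and its product quenches rhodamine fluorescence; potency is read from the fitted curve at half-maximal effect; 0% = enzyme reaction without inhibitor and -100% = no enzyme wells; top concentration of the series not given in the record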
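Step 1, compound plus 15 nM Sfp-PPTase, 15 min, room temperature. Step 2, add rhodamine-CoA (5 uM) and BHQ-2-YbbR (12.5 uM). Step 3, read 525/598 nm fluorescence at 0 and 30 min.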
ClpP mod – qHTS Assay for Activators of ClpP | Potency, µM (highest dose often 57.5 µM), for inactives: top-dose activity change, negative = active | 340,000 compounds, 1.9% hits | ATP-dependent Clp protease proteolytic subunit (Bacillus subtilis (strain 168)), P80244 | AID 651965, 2013 | purified B. subtilis ClpP, FRET peptide cleavage, 20 min; active = well fitted falling curve with a large enough effect; inconclusive = small, poorly fitted or top-dose-only effect; inactive = no such curve, though single readings can be large or run the other way; also: potency is read from the fitted curve at half-maximal effect; the source files actives as falling curves though it sought activators and does not explain the sign; nearly all actives have a fitted effect of over 65% in size; many hits overshoot -100%
Target sequence (P80244 whole entry, looked up): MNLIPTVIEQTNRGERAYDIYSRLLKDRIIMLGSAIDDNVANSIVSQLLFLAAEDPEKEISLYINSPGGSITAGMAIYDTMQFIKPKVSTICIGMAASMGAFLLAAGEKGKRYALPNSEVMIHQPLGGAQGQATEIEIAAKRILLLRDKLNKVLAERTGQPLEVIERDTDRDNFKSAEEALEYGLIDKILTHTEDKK
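Purified B. subtilis ClpP, 10 microg/mL final in Tris/HCl pH8 with KCl, BSA, glycerol and Tween-20, cleaved an Abz/nitrotyrosine-quenched decapeptide. Fluorescence (ex 320, em 430) was read at 0 and 20 min at room temperature. Delta was normalized to 5.8 microM ADEP and DMSO/no-enzyme controls.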
gsp agonist – activates gsp, the McCune-Albright syndrome mutation | Potency, µM (titrated, usually from 76.9 µM), for inactives: at the highest dose activation (cAMP increase), hits mostly activators | 340,000 compounds, 0.13% hits | gsp mutant cells, cAMP HTRF, 30 min; control for the full effect not named in the record; active = well fitted activation curve with a large enough effect; inconclusive = small, poorly fitted or top-dose-only effect, or another doubt; inactive = no such curve, though single readings can be large or run the other way; cell line not stated here;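 also: phosphodiesterase inhibitor Ro 20-1724 added with compounds to block cAMP breakdown; potency is read from the fitted curve at half-maximal effect; nearly all actives have a fitted effect of over 60% in size; about a fifth of the inactives were tested at one dose only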
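Cells in DMEM/10% FBS with G418 were pretreated with compounds in DMSO plus […] (300 uM stock) for 30 min at 37C. cAMP was measured by HTRF (cAMP-d2 plus anti-cAMP antibody-K) after 30 min at room temperature.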
TRPV1 PAM – potentiators of human vanilloid receptor 1 (TRPV1); TRPV1-expressing cells, Fluo-8 calcium influx, capsaicin EC20 potentiation; host cell line not named in the record; control for the full effect not named in the record; potentiation, % at 8.33 µM; 320,000 compounds, 0.02% hits; AID 540277; active means potentiation above 80%; inconclusive means 30% to 80%; inactive means below 30%; also: 0% is about no effect
Target sequence (Q8NER1 whole entry, looked up): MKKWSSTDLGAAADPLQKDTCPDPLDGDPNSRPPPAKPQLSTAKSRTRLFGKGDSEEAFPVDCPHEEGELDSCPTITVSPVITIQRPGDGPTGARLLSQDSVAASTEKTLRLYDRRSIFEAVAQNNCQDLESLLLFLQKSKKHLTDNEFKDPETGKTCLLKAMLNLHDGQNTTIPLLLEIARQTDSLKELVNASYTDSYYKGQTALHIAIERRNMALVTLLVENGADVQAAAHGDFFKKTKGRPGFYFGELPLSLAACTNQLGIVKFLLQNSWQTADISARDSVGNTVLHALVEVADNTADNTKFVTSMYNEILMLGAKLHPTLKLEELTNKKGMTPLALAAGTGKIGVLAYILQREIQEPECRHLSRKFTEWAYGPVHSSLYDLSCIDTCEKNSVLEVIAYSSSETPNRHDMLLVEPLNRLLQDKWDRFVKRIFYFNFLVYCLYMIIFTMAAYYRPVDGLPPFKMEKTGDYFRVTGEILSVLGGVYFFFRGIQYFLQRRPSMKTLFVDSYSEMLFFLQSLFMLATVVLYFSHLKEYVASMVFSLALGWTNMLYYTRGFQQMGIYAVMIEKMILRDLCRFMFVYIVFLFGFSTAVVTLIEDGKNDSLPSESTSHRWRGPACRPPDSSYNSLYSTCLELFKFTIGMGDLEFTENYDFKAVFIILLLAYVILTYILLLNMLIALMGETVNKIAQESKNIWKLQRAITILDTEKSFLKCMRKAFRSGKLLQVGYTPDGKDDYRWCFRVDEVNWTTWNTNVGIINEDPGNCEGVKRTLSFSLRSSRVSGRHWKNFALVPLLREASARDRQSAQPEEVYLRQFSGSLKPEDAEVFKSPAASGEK
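Fluo-8 calcium influx in TRPV1-expressing cells, kinetic read (ex 480/em 520 nm). Compound added and read 3 min for agonist activity, followed by capsaicin at EC20 final and 2 min further read for enhancement.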
TRPML1 inh – blocks the human TRPML1 channel | Q9GZU1 | TRPML1-inducible cells, Ca2+ dye fluorescence, FDSS; stronger effect = lower value; inhibition of EC80 agonist-evoked calcium signal | activity change, negative = inhibition, % (no concentration beside the values) | 390,000 compounds, 0.02% hits; in the data active means activity change below about -50%; inconclusive means about -30% to -50%; inactive means above about -30%;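 also: stimulus is agonist 54-4 at its EC80 concentration; % is scaled to controls: 0 for no effect and ±100 for the full control effect; compound concentration not given in the record; the text of the record puts the active cut at -80%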
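TRPML1-DL cells, Tet-induced overnight (~16 h, 37 °C) at 1,500 cells/well, were loaded with Ca8 no-wash dye plus quencher for 45-90 min at room temperature. Compounds were pinned during FDSS kinetic reading; agonist 54-4 at EC80 (4 uM final) then added.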
Menin MLL FP FL – displaces fluorescein MLL peptide from human menin; Fluorescence polarization, fluorescein-MLL peptide displacement from menin; FP activity change, % at 61.4 µM; AID 1766; 290,000 tested, under 10 active; inconclusive = falling polarisation curve, or a change in total fluorescence; inactive = total fluorescence flat and polarisation flat or rising; no compound was filed as active; the % refers to the polarisation; negative = inhibition;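 also: % of control where 0% means no effect; inhibitors lower the polarisation; unlabelled MLL peptide was the positive control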
gsp antag – antagonists of gsp mutant (McCune-Albright syndrome); gsp-mutant cells, cAMP HTRF, 30 min; control for the full effect not named in the record; Potency, µM (series often up to 76.9 µM), for inactives: top-dose activity change, negative = inhibition, usual class: inhibitors; 340,000 compounds, 0.4% hits; active = falling curve of any shape with a large fitted effect; inconclusive = falling curve, mostly with a smaller effect; inactive = flat or rising curve; cell line not stated here;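 also: intracellular cAMP measured with PDE inhibitor Ro 20-1724 present during compound exposure; potency is read from the fitted curve at half-maximal effect; % is scaled to controls: 0 for no effect and ±100 for the full control effect; nearly all actives have a fitted effect of over 65% in size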
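Cells in G418 medium, seeded 16-24 h, 37C; buffer exchange to DPBS + 1 mM CaCl2, 0.5 mM MgCl2, 0.05% BSA; cpds in DMSO + […] (300 uM stock), 30 min 37C; HTRF cAMP detection.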
Active calls of the source: *; u = inconclusive; x = no result given; [ ] = another dose, or the depositor's remark.

SMILES,Menin MLL FP FL,Sfp PPTase inh,TRPV1 PAM,gsp agonist,ClpP mod,gsp antag,TRPML1 inh
COCCOc1cc(COC)nc(-c2cccc(C)c2)n1,-1.7,10%,-1,30%,-15%,-14%,-19
CCc1sc(C(=O)Nc2ccccc2N2CCOCC2)cc1C,-0.5,2%,-16,15%,x,-15%,29
OCCN1CCN(c2nc(NCc3ccco3)c3ccccc3n2)CC1,2.4,2%,8,8%,u,-1%,22
COc1ccc(NC(=O)c2ccc(NC(=O)CN3CCN(c4ccccc4)CC3)cc2)cc1,x,x,x,-10%,-6.2%,20%,-1
Cc1ccc(C(=O)N/C(=C\c2cccs2)C(=O)NC2CCCCC2)cc1,-1.9,-11%,-6,-2%,-1.7%,5%,7
Clc1ccc(-c2nnc3sc(-c4ccccn4)nn23)cc1,-0.8,11%,11,x,x,x,x
COc1ccccc1C(=O)Nc1ccnn1C1CCN(Cc2cc(C)c(C)cc2C)CC1,x,-1%,6,2%,-2.7%,-15%,-13
CCCN1CCN(CCCNC(=O)C(CC)n2nc(C)c3sc4ccccc4c3c2=O)CC1 (stereo not drawn),x,10%,-15,-24%,3.7%,-2%,-12
Cc1cccc(C(=O)NC(CC(=O)O)c2ccc(OC3CCCC3)cc2)c1[N+](=O)[O-] (stereo not drawn),-0.4,-3%,18,0%[15.4 µM],x,x,30
CC(=O)N1CCN2C(=O)C1CCCC(=O)c1cc(C)ccc12 (stereo not drawn),0.5,0%,-11,-51%[inhibitor],-5.2%,4%,6

Reprinted at random: three compounds from above, in no set order.
SMILES,Menin MLL FP FL,Sfp PPTase inh,TRPV1 PAM,gsp agonist,ClpP mod,gsp antag,TRPML1 inh
Clc1ccc(-c2nnc3sc(-c4ccccn4)nn23)cc1,-0.8,11%,11,x,x,x,x
COc1ccc(NC(=O)c2ccc(NC(=O)CN3CCN(c4ccccc4)CC3)cc2)cc1,x,x,x,-10%,-6.2%,20%,-1
CCCN1CCN(CCCNC(=O)C(CC)n2nc(C)c3sc4ccccc4c3c2=O)CC1 (stereo not drawn),x,10%,-15,-24%,3.7%,-2%,-12

(next part)
SMILES,Menin MLL FP FL,Sfp PPTase inh,TRPV1 PAM,gsp agonist,ClpP mod,gsp antag,TRPML1 inh
CC(=O)c1cccc(NC=C2C(=O)OC3(CCCCC3)OC2=O)c1,1.0,12%,5,22%,-12%,-4%,5
N#Cc1ccc(-c2csc(-c3ccno3)n2)cc1,4.8,3%,1,-2%[15.4 µM],-14%,-3%,3
COC(=O)C1=C(N)Oc2cc(C)n(Cc3cccnc3)c(=O)c2C1c1ccc(OC)c(OC)c1 (stereo not drawn),2.0,21%,-7,2%,0.7%,-22%,-2
Cc1sc2ncn3cnnc3c2c1C,1.2,-15%,2,u,-16%,-11%,-5
CC(=O)c1ccc2c(c1)OCCOCCOCCOCCOCCO2,0.4,8%,-32,1%,x,-3%,0
CS(=O)(=O)N(CCc1ccccc1)CC(=O)NCc1ccccc1,-0.2,5%,9,u,x,10%,-7
C/C(=N\NC(=O)CC1N=C(Cc2ccccc2)NNC1=O)c1ccc(Br)cc1 (stereo not drawn),2.3,24%,3,1%,0.4%,12%,7
O=C(CCc1ccccc1)N/N=C/c1cc(Br)ccc1O,0.5,12%,2,-50%[inhibitor],-9.8%,2%,32
O=C(c1nn2c(C(F)(F)F)cc(-c3cccs3)nc2c1Br)N1CCCc2ccccc21,7.6,18%,8,-14%,-2.3%,-4%,12
CS(=O)(=O)Nc1ccc(S(=O)(=O)N2CCCC2)cc1,4.3,13%,2,-1%[15.4 µM],x,6%,-8

Additional compounds.
SMILES,Menin MLL FP FL,Sfp PPTase inh,TRPV1 PAM,gsp agonist,ClpP mod,gsp antag,TRPML1 inh
O=C(COC(=O)c1ncc(Cl)c(Cl)c1Cl)Nc1ccccc1OC(F)F,4.2,11%,-3,-18%,-1.0%,-12%,19
CN(CC(=O)Nc1ccccc1Br)C(=O)c1ccccc1OCc1ccc(Cl)cc1,x,x,x,19%,0.8%,-3%,-14
CSCCC(NS(=O)(=O)c1cccc(C(F)(F)F)c1)C(=O)N(C)Cc1ccc2c(c1)OCCO2 (stereo not drawn),x,0%,-12,-28%[15.4 µM],-1.8%,-11%,12
COc1ccc(/C=N/Nc2nc(-c3cccc(S(=O)(=O)N4CCCC4)c3)cs2)c(OC)c1,7.3,-12%,19,-26%,-11%,4%,-7
Cc1ccc(N(C(C)C(=O)N2CCCCC2)S(C)(=O)=O)cc1C (stereo not drawn),-0.5,-3%,-5,u,-0.8%,10%,6
O=C(c1cn(CC(=O)N2CCCCC2)c2ccccc12)C1CC1,3.4,13%,23,-17%,0.1%,3%,-6
C[C@H](CO)N1C[C@H](C)[C@@H](CN(C)Cc2ccccc2)Oc2c(NC(=O)C3CC3)cccc2C1=O,x,x,x,x,-4.3%,-10%,11
Cc1ccc(-n2nc3c(=O)n(CC(=O)NCc4ccccn4)nc(C)c3c2C)cc1,x,4%,16,-3%,-1.8%,2%,15
CC(=O)Nc1ccc(SCC(=O)NC(=O)c2ccc(Cl)cc2)cc1,x,x,x,-20%,-3.7%,x,-22
O=C(c1cc(-c2ccc(Cl)cc2)n[nH]1)N1CCN(C(=O)c2ccco2)CC1,0.1,6%,-1,-9%,0.2%,-10%,30

The results go on:
SMILES,Menin MLL FP FL,Sfp PPTase inh,TRPV1 PAM,gsp agonist,ClpP mod,gsp antag,TRPML1 inh
CCN(CC)C(=O)CSc1nc2ncc(Cl)cc2[nH]1,-6.0,6%,-2,-47%[inhibitor],-8.7%,4%,-6
Cc1cccc(C(=O)NCCC(=O)NCc2ccccc2F)c1,x,x,-15,-2%,1.7%,5%,-18
COC(=O)C1CSC(C(=O)OC)N1C(=O)CN1CCN(c2ccccc2)CC1 (stereo not drawn),0.8,16%,-5,-6%[15.4 µM],x,14%,18
O=C(Nc1ncc(Cc2cccc(Cl)c2)s1)c1ccc([N+](=O)[O-])cc1,2.7,18%,3,-2%,4.4%,14%,-2
COc1cc(OC)cc(C(=O)NNC(=O)c2ccc(S(=O)(=O)N3CC(C)OC(C)C3)cc2)c1 (stereo not drawn),1.8,-2%,-9,u,0.6%,7%,24
COc1cc(CC(=O)OCC(=O)c2ccc3c(c2)OCCO3)cc(OC)c1OC,3.1,0%,5,13%,-0.2%,14%,-6
S=C(c1c[nH]c2ccccc12)N1CCCC1,-0.4,11%,-2,-4%[15.4 µM],-12%,-2%,8
CCc1cc(/C(Cc2ccc3ccccc3n2)=N\O)c(O)cc1O,u,13%,-24,15%,-3.4%,-9%,9
CCn1c(C)c(C(C)=O)c(N2CCN(c3ccccn3)CC2)nc1=S,-2.7,10%,17,u,-0.1%,-1%,19
Cc1c(Cl)cccc1NC(=O)Nn1cnnc1,-1.4,3%,13,-20%,-1.3%,10%,6

Remaining list, next part
SMILES,Menin MLL FP FL,Sfp PPTase inh,TRPV1 PAM,gsp agonist,ClpP mod,gsp antag,TRPML1 inh
CN1CCN(CC(=O)C23CC4CC(CC(C4)C2)C3)CC1,-0.1,1%,-1,19%,0.7%,2%,15
CN(CC(=O)Nc1ccc(N2CCOCC2)cc1)C(=O)C12CC3CC(CC(C3)C1)C2,x,x,-15,-32%[inhibitor],-2.0%,-1%,-3
C(=N\N=C\c1cccnc1)/c1cccnc1,-0.8,23%,-7,2%,-1.7%,7%,-22
CCOC(=O)C1=C(COC(=O)c2ccc([N+](=O)[O-])s2)NC(=O)NC1C (stereo not drawn),x,x,x,u,-0.2%,6%,-19
CCOc1cc(/C=N/NC(=O)c2ccncc2)ccc1OC(=O)c1ccccc1,1.4,-11%,-3,0%,-6.0%,-12%,18
CCN(Cc1nc(-c2ccccc2)no1)C(=O)COc1cccc(OC)c1,-0.2,-4%,u,-10%,x,-9%,5
Cc1ccc(NC(=O)c2nc[nH]c2C(=O)N[C@@H](C)C(=O)OC(C)(C)C)cc1,1.4,15%,-17,x,0.5%,-17%,-14
CCc1ccc(/C=N/NC(=O)c2cc(C)on2)s1,2.7,12%,-2,14%[15.4 µM],2.8µM*,5%,-6
COc1ccccc1-c1nnc(SC(C)C(=O)Nc2ccc(C(N)=O)cc2)o1 (stereo not drawn),x,x,-2,1%,-0.1%,9%,4
Cc1ccccc1N/C(SCc1cccc(Br)c1)=C(/C#N)C(N)=O,5.4,12%,0,5%[15.4 µM],-0.3%,u,19

The results go on:
SMILES,Menin MLL FP FL,Sfp PPTase inh,TRPV1 PAM,gsp agonist,ClpP mod,gsp antag,TRPML1 inh
COc1ccccc1C(=O)OCC(=O)NC12CC3CC(CC(C3)C1)C2,x,x,-4,-6%[15.4 µM],x,4%,-3
CN1c2ccccc2C(=O)C(=C2SCCCS2)S1(=O)=O,0.3,7%,-15,-14%,-1.0%,-8%,-4
O=[N+]([O-])c1ccccc1/C=N/Nc1nnc(-c2ccccc2)c(-c2ccccc2)n1,4.4,22%,2,0%,0.8%,-2%,-20
O=C(Nc1ccnn1C1CCN(C(=O)c2c(F)cccc2F)CC1)C1CC1,0.1,15%,1,4%,0.3%,6%,10
CC1CC(=O)N(c2ccc(C(C)C)cc2)C(=O)C1,-3.2,13%,4,u,-1.7%,-9%,13

Bioassay records deposited in PubChem BioAssay by National Center for Advancing Translational Sciences (NCATS).
